HIV Env fusion – HIV envelope-mediated fusion inhibition | HeLa-JRFL Env/CEM21 cell fusion, luciferase | inhibition, % at 12.3 µM | 360,000 compounds, 1.1% hits;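 active = mean replicate inhibition score of at least 50 and every replicate individually at or above 50; inconclusive = only one of the two criteria met; inactive = mean below 50 and not all replicates reaching 50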;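 note: 0% = plate neutral controls and 100% = maraviroc near 300 nM; one replicate is shown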
UUG fidelity – alters start codon recognition fidelity in yeast. 350,000 compounds, 0.13% hits. activity score, % at 18.7 µM. S. cerevisiae UUG-firefly luciferase reporter, luminescence/redox ratio;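 active = replicate mean at a twofold rise or more, about +100% in these data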;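 note: firefly luciferase made from a UUG start codon reports start codon fidelity; reporter light over untreated wells divided by growth signal over untreated wells; some hits fall short of that in this replicate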
The depositor's hits bear a star; ? = inconclusive; [ ] = remark or other dose. This is a subset. The share of hits here may be higher or lower than overall.

canonical_smiles	UUG fidelity	HIV Env fusion
C[C@H](CO)N1C[C@H](C)[C@@H](CN(C)Cc2ccncc2)OCCCC[C@H](C)Oc2ccc(NS(=O)(=O)c3cn(C)cn3)cc2C1=O	5	12[16.7 µM]
CCCN1C[C@H](C)[C@H](OC)CN(C)C(=O)c2cc(NC(=O)C3CCOCC3)ccc2OC[C@@H]1C	8	1[16.7 µM]
CCC(=O)N(C)C[C@H]1Oc2cc(C3=CCCC3)ccc2S(=O)(=O)N([C@H](C)CO)C[C@@H]1C	4	-5[16.7 µM]
Cc1noc(C)c1S(=O)(=O)Nc1ccc2c(c1)C(=O)N([C@@H](C)CO)C[C@H](C)[C@H](CN(C)C(=O)Cc1ccccc1)OCCCC[C@H](C)O2	6	4[16.7 µM]
O=C(C[C@H]1CC[C@@H]2[C@H](COC[C@@H](O)CN2C(=O)Nc2ccccc2)O1)NCc1ccncn1	1	-21[16.7 µM]
CC(C)NC(=O)Nc1ccc2c(c1)C(=O)N([C@@H](C)CO)C[C@H](C)[C@@H](CN(C)Cc1ccc(C(=O)Nc3ccccc3N)cc1)O2	8	5[16.7 µM]
C[C@H]1CN([C@@H](C)CO)C(=O)c2cc(C#Cc3ccccn3)cnc2O[C@H]1CN(C)Cc1ccccc1	-9	-22[16.7 µM]
OC[C@H]1O[C@H](c2nc(-c3nc(-c4cccs4)no3)cs2)C[C@@H]1O	-34	-36
CCC(=O)N1C[C@H](C)[C@@H](OC)CN(C)C(=O)c2ccc(NC(=O)COC)cc2OC[C@H]1C	-23	0[16.7 µM]
Cc1noc(C)c1NC(=O)N[C@H]1CC[C@H](CC(=O)Nc2ccc(-c3ccccc3)cc2)O[C@@H]1CO	-16	19[16.7 µM]
CCC(=O)Nc1ccc2c(c1)C(=O)N(C)[C@@H]1CC[C@H](CC(=O)NCc3ccc(OC)cc3)O[C@H]1CO2	-3	-17[16.7 µM]
COc1ccc(S(=O)(=O)Nc2cccc3c2O[C@@H](CN(C)S(=O)(=O)c2ccc(F)cc2)[C@H](C)CN([C@H](C)CO)C3=O)cc1	-23	4[16.7 µM]
CCCNC(=O)[C@@]1(C)c2ccccc2C(=O)N(Cc2ccccc2)[C@H]1c1ccc(CO)cc1	5	20[16.7 µM]
COc1ccc(COCC23N=C4SCc5ccccc5CN4[C@H](c4ccccc4O2)[C@H]3COC(=O)c2ccccc2)cc1	0	69*[16.7 µM]
O=C(N[C@H]1CC[C@H](CCNS(=O)(=O)c2ccc(F)cc2)O[C@@H]1CO)C1CC1	11	-6[16.7 µM]
C/C=C/c1ccc2c(c1)O[C@@H](CN(C)C(=O)C1CCCCC1)[C@H](C)CN([C@@H](C)CO)S2(=O)=O	5	8[16.7 µM]
C[C@@H]1CN([C@@H](C)CO)C(=O)c2cc(-c3ccncc3)cnc2O[C@@H]1CN(C)C(=O)c1ccc(F)cc1	46	-10[16.7 µM]
CCC(=O)N(C)C[C@H]1Oc2ncc(C#C[C@H](C)O)cc2C(=O)N([C@H](C)CO)C[C@@H]1C	10	15[16.7 µM]
Cc1ccc(S(=O)(=O)Nc2cccc3c2O[C@H](CN(C)C(=O)Nc2ccc(F)cc2)[C@H](C)CN([C@H](C)CO)C3=O)cc1	-5	-10[16.7 µM]
C[C@H](CO)N1C[C@H](C)[C@@H](CN(C)C(=O)Nc2ccc3c(c2)OCO3)Oc2ncc(-c3ccncc3)cc2C1=O	-12	-13[16.7 µM]
C[C@@H]1CN([C@@H](C)CO)C(=O)c2cc(-c3ccncc3)cnc2O[C@H]1CN(C)C	11	-20[16.7 µM]
Cc1ccc(S(=O)(=O)N[C@@H]2CC[C@@H](CC(=O)N3CCN(c4ccccc4)CC3)O[C@@H]2CO)cc1	6	-29[16.7 µM]
CC(C)NC(=O)N(C)C[C@@H]1Oc2ccc(NC(=O)NC3CCCCC3)cc2CC(=O)N([C@@H](C)CO)C[C@H]1C	2	7[16.7 µM]
O=C(Nc1cc(F)ccc1F)N[C@@H]1C=C[C@@H](CC(=O)N2CCc3ccccc3C2)O[C@H]1CO	7	-6[16.7 µM]
Cc1noc(C)c1S(=O)(=O)Nc1ccc2c(c1)C(=O)N([C@@H](C)CO)C[C@H](C)[C@H](CN(C)C(=O)NC(C)C)OCCCC[C@H](C)O2	-2	4[16.7 µM]
C[C@@H]1CN([C@@H](C)CO)C(=O)c2cc(NC(=O)Nc3ccccc3)ccc2O[C@@H]1CN(C)S(=O)(=O)c1cccs1	18	15[16.7 µM]
C[C@@H]1CN([C@H](C)CO)C(=O)Cc2cc(NC(=O)c3ccncc3)ccc2O[C@@H]1CN(C)Cc1ccccc1	-17	-15[16.7 µM]
O=C(C[C@@H]1C[C@H]2c3cc(NC(=O)NC4CCCC4)ccc3O[C@H]2[C@@H](CO)O1)NC1CCCCC1	-3	29[16.7 µM]
C[C@@H]1CN([C@H](C)CO)C(=O)c2cc(NC(=O)NC3CCCCC3)ccc2O[C@H]1CN(C)C(=O)Nc1ccc2c(c1)OCO2	-4	-8[16.7 µM]
C[C@@H]1CN([C@H](C)CO)C(=O)Cc2cc(NC(=O)Nc3ccc(F)cc3)ccc2O[C@H]1CN(C)Cc1ccc(Oc2ccccc2)cc1	13	-2[16.7 µM]

Grouped by structure, the entries above with a halogen.
canonical_smiles	UUG fidelity	HIV Env fusion
COc1ccc(S(=O)(=O)Nc2cccc3c2O[C@@H](CN(C)S(=O)(=O)c2ccc(F)cc2)[C@H](C)CN([C@H](C)CO)C3=O)cc1	-23	4[16.7 µM]
O=C(N[C@H]1CC[C@H](CCNS(=O)(=O)c2ccc(F)cc2)O[C@@H]1CO)C1CC1	11	-6[16.7 µM]
C[C@@H]1CN([C@@H](C)CO)C(=O)c2cc(-c3ccncc3)cnc2O[C@@H]1CN(C)C(=O)c1ccc(F)cc1	46	-10[16.7 µM]
Cc1ccc(S(=O)(=O)Nc2cccc3c2O[C@H](CN(C)C(=O)Nc2ccc(F)cc2)[C@H](C)CN([C@H](C)CO)C3=O)cc1	-5	-10[16.7 µM]
O=C(Nc1cc(F)ccc1F)N[C@@H]1C=C[C@@H](CC(=O)N2CCc3ccccc3C2)O[C@H]1CO	7	-6[16.7 µM]
C[C@@H]1CN([C@H](C)CO)C(=O)Cc2cc(NC(=O)Nc3ccc(F)cc3)ccc2O[C@H]1CN(C)Cc1ccc(Oc2ccccc2)cc1	13	-2[16.7 µM]

Remaining list, next part.
canonical_smiles	UUG fidelity	HIV Env fusion
O=C(CC1CC1)Nc1ccc2c(c1)[C@H]1C[C@H](CC(=O)N3CCCCC3)O[C@@H](CO)[C@H]1O2	-2	-13[16.7 µM]
Cc1ccc(S(=O)(=O)N(C)C[C@@H]2Oc3ccc(NC(=O)Cn4cnnn4)cc3CC(=O)N([C@H](C)CO)C[C@@H]2C)cc1	1	89*[16.7 µM]
C[C@H](CO)N1C[C@H](C)[C@H](CN(C)Cc2ccc(C(=O)O)cc2)Oc2c(NC(=O)c3cnccn3)cccc2C1=O	12	5[16.7 µM]
Cc1noc(C)c1S(=O)(=O)N(C)C[C@@H]1OCCCC[C@H](C)Oc2ccc(NC(=O)Cc3ccccc3)cc2C(=O)N([C@H](C)CO)C[C@@H]1C	1	-4[16.7 µM]
COCC(=O)N(C)C[C@@H]1Oc2ncc(-c3ccccc3F)cc2C(=O)N([C@H](C)CO)C[C@@H]1C	-7	-8[16.7 µM]
CC(=O)N(C)C[C@@H]1Oc2cc(C#Cc3cccc(F)c3)ccc2S(=O)(=O)N([C@H](C)CO)C[C@@H]1C	5	13[16.7 µM]
Cc1ccccc1S(=O)(=O)N1[C@@H](C#N)[C@@H](c2ccc(-c3ccccc3)cc2)[C@@H]1CO	-19	-8[16.7 µM]
O=C(C[C@H]1C=C[C@@H](NS(=O)(=O)c2ccc(F)cc2)[C@H](CO)O1)NCCc1ccncc1	-16	1[16.7 µM]
C[C@H]1CN([C@@H](C)CO)C(=O)c2cc(N(C)C)ccc2O[C@H]1CN(C)Cc1ccc(C(F)(F)F)cc1	5	16[16.7 µM]
COc1ccc(S(=O)(=O)N2C[C@@H](O)COC[C@H]3O[C@H](CC(=O)N[C@@H]4CCN(Cc5ccccc5)C4)CC[C@@H]32)cc1	0	-3[16.7 µM]
C[C@@H]1CN([C@H](C)CO)S(=O)(=O)c2ccc(C#C[C@@H](C)O)cc2O[C@H]1CN(C)CC1CCOCC1	15	-1[16.7 µM]
C[C@@H]1CCCCO[C@H](CN(C)C(=O)Nc2ccc3c(c2)OCO3)[C@@H](C)CN([C@@H](C)CO)C(=O)c2cc(NC(=O)C3CCCCC3)ccc2O1	-2	-31[16.7 µM]
C[C@H]1CN([C@@H](C)CO)C(=O)Cc2cc(NC(=O)Nc3ccc4c(c3)OCO4)ccc2O[C@@H]1CN(C)S(=O)(=O)c1ccc(Cl)cc1	-7	2[16.7 µM]
O=C(C[C@H]1CC[C@@H](NC(=O)c2ccccc2)[C@@H](CO)O1)NCc1ccc(Oc2ccccc2)cc1	2	?
Cc1ccccc1S(=O)(=O)N1C[C@H](O)COC[C@H]2O[C@@H](CC(=O)NCc3ccccc3Cl)CC[C@@H]21	13	57*[16.7 µM]
C[C@@H]1CN([C@@H](C)CO)S(=O)(=O)c2ccc(-c3cccnc3)cc2O[C@@H]1CN(C)C(=O)C1CCCCC1	-4	15[16.7 µM]
C[C@@H]1CN([C@@H](C)CO)C(=O)Cc2cc(NS(=O)(=O)c3ccc(F)cc3)ccc2O[C@H]1CN(C)S(=O)(=O)c1ccccc1	0	2[16.7 µM]
COCC(=O)N[C@@H]1CC[C@@H](CC(=O)NCc2ccccc2OC)O[C@H]1CO	-26	8[16.7 µM]
COc1ccc(NC(=O)Nc2ccc3c(c2)CC(=O)N([C@H](C)CO)C[C@H](C)[C@@H](CN(C)S(C)(=O)=O)O3)cc1	14	4[16.7 µM]
C[C@@H]1CN([C@H](C)CO)C(=O)c2cc(N(C)C)ccc2O[C@@H]1CN(C)S(C)(=O)=O	-11	13[16.7 µM]
C[C@@H]1CCCCO[C@@H](CN(C)C(=O)NC2CCCCC2)[C@H](C)CN([C@H](C)CO)C(=O)c2cc(NS(C)(=O)=O)ccc2O1	-2	-12[16.7 µM]
COc1ccccc1NC(=O)N[C@H]1CC[C@@H](CC(=O)N2CCC(Cc3ccccc3)CC2)O[C@H]1CO	19	-280[16.7 µM]
C[C@@H]1CN([C@@H](C)CO)C(=O)c2cc(-c3cccc(C#N)c3)cnc2O[C@H]1CN(C)Cc1cncnc1	-7	-13[16.7 µM]
CCN1CCC(O)(C(C(=O)O)c2ccccc2)CC1 (stereo not given)	-11	-10
COc1ccc(C#Cc2cnc3c(c2)C(=O)N([C@H](C)CO)C[C@H](C)[C@@H](CN(C)CC2CCCC2)O3)cc1	4	-23[16.7 µM]
C[C@H]1CN([C@@H](C)CO)C(=O)c2cc(C3=CCCC3)cnc2O[C@H]1CN(C)C(=O)c1ccc(F)cc1	-1	-12[16.7 µM]
COc1ccc(S(=O)(=O)N(C)C[C@@H]2Oc3ccc(NC(=O)Cn4cnnn4)cc3C(=O)N([C@H](C)CO)C[C@@H]2C)cc1	6	-6[16.7 µM]
COc1cccc(-c2cnc3c(c2)C(=O)N([C@H](C)CO)C[C@@H](C)[C@@H](CN(C)Cc2cccnc2)O3)c1	-14	-9[16.7 µM]
C[C@@H]1CN([C@H](C)CO)C(=O)Cc2cc(N(C)C)ccc2O[C@H]1CN(C)Cc1ccc(C(=O)Nc2ccccc2N)cc1	-1	10[16.7 µM]
COc1ccc(S(=O)(=O)Nc2ccc3c(c2)C(=O)N([C@@H](C)CO)C[C@@H](C)[C@@H](CN(C)Cc2ccccc2)O3)cc1	36	-7[16.7 µM]

Continued; it opens with the two that closed the last part.
canonical_smiles	UUG fidelity	HIV Env fusion
C[C@@H]1CN([C@H](C)CO)C(=O)Cc2cc(N(C)C)ccc2O[C@H]1CN(C)Cc1ccc(C(=O)Nc2ccccc2N)cc1	-1	10[16.7 µM]
COc1ccc(S(=O)(=O)Nc2ccc3c(c2)C(=O)N([C@@H](C)CO)C[C@@H](C)[C@@H](CN(C)Cc2ccccc2)O3)cc1	36	-7[16.7 µM]
C[C@H](NC(=O)C[C@@H]1CC[C@H](NC(=O)C2CCC2)[C@H](CO)O1)c1ccccc1	-7	-8[16.7 µM]
CC(C)C#Cc1ccc2c(c1)O[C@@H](CN(C)C(=O)Nc1ccccc1)[C@@H](C)CN([C@@H](C)CO)S2(=O)=O	-3	5[16.7 µM]
CNC[C@H]1OCc2cnnn2CCCC(=O)N([C@@H](C)CO)C[C@@H]1C	-6	-17
CN(C)C(=O)C[C@H]1CC[C@@H]2[C@@H](COc3ccc(NS(=O)(=O)c4cccc(F)c4)cc3C(=O)N2C)O1	-3	-14[16.7 µM]
Cc1noc(C)c1NC(=O)N(C)C[C@H]1OCCCC[C@H](C)Oc2ccc(NS(=O)(=O)c3ccc(F)cc3)cc2C(=O)N([C@@H](C)CO)C[C@H]1C	1	17[16.7 µM]
CNC[C@H]1Oc2cc(C#Cc3ccccc3)ccc2S(=O)(=O)N([C@@H](C)CO)C[C@@H]1C	18	16[16.7 µM]
O=C(C[C@@H]1C=C[C@@H](NC(=O)Nc2cc(F)ccc2F)[C@@H](CO)O1)NCc1ccccn1	-7	3[16.7 µM]
Cc1nc(S(=O)(=O)N2CCN(Cc3ccc(OCCO)cc3)CC2)cn1C	4	-8[16.7 µM]
C[C@@H]1CN([C@H](C)CO)S(=O)(=O)c2ccc(C3=CCCCC3)cc2O[C@H]1CN(C)C(=O)CN(C)C	9	21[16.7 µM]
CCC(=O)N(C)C[C@H]1Oc2ncc(C3=CCCC3)cc2C(=O)N([C@H](C)CO)C[C@@H]1C	2	-7[16.7 µM]
